Vaccinia mCherry = vaccinia inhibition (mCherry reporter) | Vaccinia virus mCherry reporter infection, fluorescence; about a quarter of the inactives have no number | Potency, µM (doses to about 36.5 µM), without a hit: at the highest dose activity change, negative = inhibition, actives largely listed as inhibitors | actives 0.63% (n = 310,000); active = well fitted inhibition curve with a large enough effect; inconclusive = small, poorly fitted or top-dose-only effect; inactive = no such curve, though single readings can be large or run the other way; tested in A549 cells; also: nearly all actives have a fitted effect of over 35% in size; inactives centre near -10
VACV Venus inh = vaccinia inhibition (Venus reporter) | Potency, µM (doses to about 36.5 µM), for the others: at the highest dose activity change, negative = inhibition, usual class: inhibitors | actives 0.46% (n = 330,000) | Vaccinia virus Venus reporter expression, fluorescence; active means well fitted inhibition curve with a large enough effect; inconclusive means small, poorly fitted or top-dose-only effect; inactive means no such curve, though single readings can be large or run the other way; tested in A549 cells; also: nearly all actives have a fitted effect of over 30% in size; inactives centre near -10
The depositor's hits bear a star; i = inactive; ? = inconclusive; . = no result given; [ ] = dose if it differs, or a comment. % is scaled to controls: 0 for no effect and ±100 for the full control effect; potency is read from the fitted curve at half-maximal effect. An unsorted share of the library; about 0.87% have a hit in one of these screens.

SMILES	Vaccinia mCherry	VACV Venus inh
CCCCCN(C(=O)CCC(=O)OCC(=O)N(C)Cc1ccc(C)cc1)c1c(N)n(CCCC)c(=O)[nH]c1=O	-3%	-12%
COC(=O)CN1C(=O)[C@H]2[C@@H](/C=C/c3ccccc3)N3C(=O)CN(CCO)C(=O)[C@@]3(Cc3ccccc3)[C@H]2C1=O	i	-3%
O=C(CNC(=O)c1ccc2c(c1)OCCO2)N=Nc1c(O)[nH]c2ccccc12	6%[7.34 µM]	0%[7.34 µM]
COc1ccc(Cl)cc1C(=O)Nc1sc2c(c1C(=O)OC(C)C)CCCC2	-7%	-9%
CCOC(=O)c1noc2ncn(CC(=O)Nc3cccc(C(F)(F)F)c3)c(=O)c12	-3%	-2%
Cn1c(=O)[nH]c(=O)c2c1nc(CN(Cc1ccccc1)Cc1ccccc1)n2CCN1CCOCC1	-7%	-14%
Cc1ccc(OCC(=O)N2CCC(N3CC(C)CC(C)C3)CC2)cc1 (centres undefined)	i	-7%
Cc1ccsc1CN(Cc1ccco1)c1cnc(S(C)(=O)=O)nc1C(=O)Nc1ccc(Cl)cc1	?	-15%
CCCCCCN1C=C/C(=C\C=C(C#N)C#N)c2ccccc21	21%	33%[activator]
O=C(Nc1ccccc1Br)c1cc(=O)c2ccccc2o1	-4%	-3%
CC(C)COC(=O)N1CCCCC1c1cc(C(=O)Nc2ccc3c(c2)OCO3)no1 (centres undefined)	31%[activator]	-14%
CC(C)C[C@@H](COCc1ccc(C(F)(F)F)cc1)N1CCN(C(=O)c2ccc(C(F)(F)F)cc2)CCC1=O	-2%	-9%
Cc1ccccc1OCC(=O)Nc1cc(-c2cccc(Br)c2)nn1-c1ccccc1	-15%	-11%
C#CCOCCOCCOCCNc1nc(N2CCN(C(=O)[C@H](CCCCN)n3cc(CC(C)O)nn3)CC2)nc(N2CCN(C(=O)[C@H](Cc3ccc(O)cc3)n3cc(CCO)nn3)CC2)n1 (some centres undefined)	i	0%
CCc1ccc(NC(=O)Nc2nnc(N(C)C3CCCCC3)s2)cc1	-13%	-11%
CCc1nc2ccccc2c(=O)n1-c1ccccc1[N+](=O)[O-]	-12%	-6%
O=C(Nc1ccc(F)cc1)C1C(c2ccccc2)C1(Cl)Cl (centres undefined)	-21%	-23%
Cc1ccc(-c2n[nH]c(=O)c3ccccc23)cc1S(=O)(=O)NC(C)(C)C	-6%	-8%
CCOC(=O)c1c(NC(=O)COc2ccc(OC)cc2)sc(C(=O)N(CC)CC)c1C	?	?
S=c1[nH]nc(-c2ccc3ccccc3n2)n1-c1cc(Cl)cc(Cl)c1	-23%	-17%
O=C(CNS(=O)(=O)c1ccccc1)OCc1cccc([N+](=O)[O-])c1	i	-7%
Cc1ccc(/C=C/c2onc(C)c2S(=O)(=O)N2CCC(C(=O)Nc3cc(C)ccc3C)CC2)cc1	-2%	-9%
COc1ccc(N(C)C(=O)Cn2cnc3sc(C)c(S(=O)(=O)N4CCN(c5ncccn5)CC4)c3c2=O)cc1	-4%	-5%
CCCn1c(=NC(=O)CS(=O)(=O)c2ccccc2)sc2cc(S(C)(=O)=O)ccc21	-15%	-12%
Cc1cc(C(=O)NCc2ccc3c(c2)OCO3)n(-c2ccccc2)n1	i	-10%
Cc1ccc(OCC(=O)N2N=C(c3cccnc3)CC2(O)C(F)(F)F)cc1C (centres undefined)	-12%	-28%
CCN(CC)c1ccc(/C=N/NC(=O)c2cccc(S(=O)(=O)N3CCOCC3)c2)cc1	-14%	-9%
Cc1cc(=O)[nH]c(SCc2cccc3ccccc23)n1	-8%	-9%
CN(C)CCNC(=O)Cc1ncc(C(F)(F)F)cc1Cl	-24%	12%
CC(C)C[C@@H](CNCC(=O)[C@H](C)NC(=O)c1[nH]cnc1C(=O)N[C@H](CN)CC(C)C)NC(=O)c1nc[nH]c1C(=O)N[C@@H](C)C(=O)O	i	-6%
Cc1oc(-c2ccccc2F)nc1CS(=O)(=O)CC(=O)NCc1ccco1	i	-6%
O=C(CC(=O)Nc1cccc(Cl)c1)N/N=C\c1ccccc1	i	9%
CCN(CC)S(=O)(=O)c1ccc2oc(SCc3ccc(F)cc3)nc2c1	.	?
Cc1ccccc1N1CC(c2nc3ccccc3n2Cc2ccc(Br)cc2)CC1=O (centres undefined)	-12%	-21%
O=C(O)c1ccccc1C(=O)Nc1ccc(Oc2ccc3ccccc3c2)cc1	?	-27%
COc1ccc(-c2nn(CC(=O)Nc3ccc(Cl)c(Cl)c3)c(=O)c3ccccc23)cc1	.	-22%
COc1ccc(C2CC(c3ccc(C)o3)=NN2C(C)=O)cc1 (centres undefined)	-20%	-16%
CCC(CC)C(=O)N1CCN(c2ccccc2)CC1	5%	8%
Cc1cccc(CCNC(=O)CN(C)S(=O)(=O)c2cnc[nH]2)c1	-15%	-2%
Nc1c(C(=O)N2CCCCC2)sc2nc3c(cc12)CCCC3	-22%	-4%
COC(=O)c1cnc(Nc2ccc(Cl)cc2)c([N+](=O)[O-])c1	-2%	-5%
CCCC(=O)N1CCC1(C)C(=O)NS(=O)(=O)c1ccccc1 (centres undefined)	12%	4%
O=C(NCc1ccccc1Cl)c1cnc(N2CCCCC2)c2ccccc12	-12%	-13%
CCN(CC)c1ccc(NC(=O)c2cccn2-c2nnc(N3CCCCC3)s2)c(C)c1	-14%	-11%
COc1ccc(NC(=O)CC2C(=O)N(c3cccc(C)c3)C(=O)N2Cc2cccnc2)cc1 (centres undefined)	1%	-8%

A different layout for part of the listing above.
Cc1cccc(CCNC(=O)CN(C)S(=O)(=O)c2cnc[nH]2)c1
  Vaccinia mCherry = -15%
  VACV Venus inh = -2%

Nc1c(C(=O)N2CCCCC2)sc2nc3c(cc12)CCCC3
  Vaccinia mCherry = -22%
  VACV Venus inh = -4%

Next compounds
SMILES	Vaccinia mCherry	VACV Venus inh
CCOC(=O)C1C(=O)CC(C)(O)C(C(=O)OCC)C1c1ccco1 (centres undefined)	-10%	-7%
O=C1NCCN/C1=C\C(=O)c1ccc(Cl)cc1	-1%	-11%
C=CCOC(=O)C(C(=O)Cc1ccccc1)c1ccccc1 (centres undefined)	-4%	-4%
CCCn1cnc2sc(CC)cc2c1=O	-12%	-7%
CSc1nc(-c2ccc(Cl)cc2)nc(N)c1C#N	i[7.34 µM]	-4%[7.34 µM]
Cc1ccc(NC(=O)C2(C)CCN2C2Cc3ccccc3C2)cc1 (centres undefined)	45%[activator]	1%
COc1cc(=O)oc(CCC(C)O)c1C (centres undefined)	i	-5%
COCCNC(=O)CSc1nc(-c2cc(OC)c(OC)c(OC)c2)[nH]c1-c1ccc(Cl)cc1	-11%	-8%
C(=N\c1nc2ccccc2[nH]1)/c1cccs1	-7%	-8%
C#CCOC(=O)Nc1cnccc1C(F)(F)F	-1%	3%
O=C1CCCN1CCCNC(=S)Nc1ccc(F)cc1	-12%	-4%
CC(=O)Nc1ccc2c(c1)N(S(=O)(=O)c1cccs1)CCC2	i	-18%
CCc1sc(C(=O)Nc2ccc3c(c2)OCO3)cc1C	-23%	-25%
COc1ccc(OC)c(NC(=O)CSc2nnc(-c3ccco3)o2)c1	-21%	-6%
O=C(N/N=C1\CC(c2ccccc2)Oc2ccccc21)c1ccc(O)cc1 (centres undefined)	?	-10%
Cc1ccc2c(=O)cc(C(=O)Nc3c(C(=O)c4ccccc4)oc4ccccc34)oc2c1C	-7%	-7%
CCC(C)[C@H](N)c1cn([C@@H](Cc2ccc(O)cc2)C(=O)N2CCNCC2)nn1 (some centres undefined)	-14%	-3%
CCN(CC)CCCC(C)n1c2nc(=O)[nH]c(=O)c-2nc2cc(Cl)ccc21 (centres undefined)	?	97%[activator]
Cc1nnc(NC2=NCCC2)s1	-5%	-4%
Cc1nc2cc(NC(=O)[C@@H]3C[C@@H](Sc4ccccn4)CN3Cc3ccccc3)ccc2s1	-14%	-4%
CN(C)S(=O)(=O)c1ccc(N2CCCC2)c(C(=O)N2CCN(S(=O)(=O)c3ccc(F)cc3)CC2)c1	-18%	-13%
COc1ccc([C@H]2CC(=O)C=C(c3ccc(OC)c(OC)c3)C2)cc1	?	-22%
COCC(=O)OCC(=O)Nc1cc([N+](=O)[O-])ccc1Cl	i	-13%
COCC1CCCN(C(=O)c2cc(COc3ccc(C(C)=O)cc3)on2)C1 (centres undefined)	-1%	-7%
Cc1ccc2c(c1)N(CC(=O)N1CCCCCC1)C(=O)C(C)O2 (centres undefined)	i	-10%
O=C(NN=C1CCN(Cc2ccccc2)CC1)c1cccc(S(=O)(=O)Nc2ccccc2Cl)c1	-7%	-28%
Cc1cc(C)cc(NC(=O)c2sc3nc4n(c(=O)c3c2C)CCC4)c1	-15%	-15%
Cc1noc(C)c1S(=O)(=O)N(CC(=O)N1CCn2c1nc1ccccc12)c1ccc(C(C)C)cc1	6%	-7%
N/C(=N\OC(=O)CCCc1ccccc1)c1cccnc1	i	-9%
CC(=O)Nc1ccc(S(=O)(=O)NC(C)c2ccncc2)cc1 (centres undefined)	i	-13%
CCOC(=O)C1CCN(S(=O)(=O)c2ccc(OC)c(C(=O)N3CCCCCC3)c2)CC1	-25%	-12%
O=C(CCc1nnc(CCCc2ccccc2)o1)NCCCC1CCCC1	i	-10%
COc1ccc(Cc2c(-c3ccc(F)cc3)nc3c(C)cc(Br)cn23)c(C)c1	10%	7%
COc1ccc(C(=O)NNc2cc(C)nc(NNC(=O)c3ccc(OC)cc3)n2)cc1	-11%	-8%
CCCc1cc(C(=O)Nc2sc3c(c2C(=O)OCC)CCCC3)no1	-12%	5%
O=C(CSc1nnc(Cc2ccccc2)o1)Nc1ccccc1	i	-7%
COC(=O)c1cc2c(n(-c3ccccc3)c1=O)CCCC2=O	i	0%
Cc1cc(NC(=O)CSCc2ccccc2C)no1	i	-2%
Cc1cc(NC(=O)C2CCCN2C(=O)Nc2c(C)cccc2C)ccc1-n1cnnn1 (centres undefined)	.	1%
CCCNc1nc2ccccc2n2c(C)nnc12	-3%	-10%
C=CCNC(=O)c1sc(-c2ccccc2)nc1C	i	-16%
O=C(Cn1c(CO)nc2ccccc21)NCCc1ccc(F)cc1	i	-6%
Cc1cnc2c(N)cc(C)c(C)c2c1	-22%	-25%
CCCC1CCC(=C(C#N)C(N)=O)CC1 (centres undefined)	i	-14%
Cc1ccc(NCc2cccnc2)c(Br)c1	i	-9%
Cc1c2cnn(CC(=O)N3CCC4(CC3)OCCO4)c(=O)c2c(C)n1Cc1ccccc1F	.	-13%
Cc1noc(C)c1NC(=O)N(C)C[C@H]1Oc2c(NC(=O)Nc3ccccc3)cccc2C(=O)N([C@H](C)CO)C[C@@H]1C	i	-19%
COc1ccc(NC(=O)CN2C(=O)N(C)Cc3ccccc32)c(C)c1	i	-13%
CCOc1ccccc1C(=O)N1CC(=O)Nc2ccc(C)cc2C1c1ccccc1 (centres undefined)	-11%	-3%
COc1ccccc1-c1nc2ccccc2nc1-c1ccccc1OC	-13%	1%
CCOC(=O)C1(CCOC)CCN(Cc2nc(-c3cccs3)oc2C)CC1	-4%	-5%
CN1CCN(C(=O)c2ccc3c(c2)N(Cc2ccc(Cl)cc2)C(=O)c2ccccc2S3=O)CC1 (centres undefined)	-10%	-12%
Cc1cccc(N2CCN(C(=O)CSCc3ccc(F)cc3)CC2)c1C	-11%	-18%
CC(=O)c1ccc(N2CCN(c3ccccc3O)CC2)c([N+](=O)[O-])c1	?	-16%
CCn1cc(C(C)NC(=O)Nc2ccc3c(c2)OCO3)c(C)n1 (centres undefined)	1%	-1%
CC(=O)Oc1ccc(/C=C(\NC(=O)c2ccco2)C(=O)NCc2ccco2)cc1	-3%	-17%
CCC(=O)c1ccc(O)c(CC=C(C)C)c1	.	-21%
CCOc1ccccc1C1C(C#N)=C(N)Oc2n[nH]c(CC)c21 (centres undefined)	-10%	0%
CN(CCC#N)C(=O)c1cc2c(Cl)nc3ccccc3c2s1	-10%	0%
COc1ccc(C2=NN(C(=O)c3ccccc3)C(c3ccccc3)C2)c(O)c1 (centres undefined)	-19%	-12%

More records:
SMILES	Vaccinia mCherry	VACV Venus inh
O=C(c1ccoc1)N1CCC2(CC1)Oc1ccc(F)cc1C(=O)C21CC(c2ccc(Cl)cc2)=NO1 (centres undefined)	i	-22%
COc1cccc(Nc2ncc(C#N)c(N)n2)c1	-7%	?
COc1ccc(NC(=S)NC(=O)c2ccc(Br)o2)cc1	i	-14%
CC(=O)c1cc2c(cc1NC(=O)C1CCC1)OCO2	-13%	9%
Cc1ccsc1C=Nc1ccc(O)cc1	-8%	6%
O=C(CSc1nc2ccccc2s1)NCc1ccc2c(c1)OCO2	i	-13%

Gathered by group, those above containing a nitro group on carbon.
SMILES	Vaccinia mCherry	VACV Venus inh
CCc1nc2ccccc2c(=O)n1-c1ccccc1[N+](=O)[O-]	-12%	-6%
O=C(CNS(=O)(=O)c1ccccc1)OCc1cccc([N+](=O)[O-])c1	i	-7%
COC(=O)c1cnc(Nc2ccc(Cl)cc2)c([N+](=O)[O-])c1	-2%	-5%
COCC(=O)OCC(=O)Nc1cc([N+](=O)[O-])ccc1Cl	i	-13%
CC(=O)c1ccc(N2CCN(c3ccccc3O)CC2)c([N+](=O)[O-])c1	?	-16%

Bioassay records: PubChem, National Center for Advancing Translational Sciences (NCATS)
